Screening results as filed in PubChem.
HTT promoter inh = HTT promoter inhibition; HEK293 HTT promoter firefly luciferase reporter (activity 0% = vehicle and -100% = no light), 24 h; Potency, µM (doses to about 57.5 µM), for the others: at the highest dose activity change, negative = inhibition, usual class: inhibitors; actives 0.93% (n = 48,000); AID 1508623; active = well fitted inhibition curve with a large enough effect; inconclusive = small, poorly fitted or top-dose-only effect; inactive = no such curve, though single readings can be large or run the other way; note: nearly all actives have a fitted effect of over 50% in size
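HEK293 Fluc reporter, 2,500 cells/well, 24 h pre-culture; cpds up to 57.5 uM final, 24 h 37 degrees C; Dual-Glo, 10 min RT; normalized vehicle = 0%, zero RLU = -100%.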
PMP22 txn prim = modulators of PMP22 gene transcription in S16 Schwann cells; S16 Pmp22-F2sN Schwann cells (luciferase reporters placed in the Pmp22 gene), FLuc/NLuc coincidence luminescence, 24 h; Potency, µM (top dose mostly 57.5 µM), for the others: top-dose activity change, negative = inhibition, actives largely listed as inhibitors; actives 2% (n = 43,000); AID 1508649; active = clear falling dose curves in both reporters; inconclusive = both reporters move, but less clearly or upward; inactive = either reporter flat; the % is the NLuc reporter signal; note: % is set by controls: 0 for no effect and ±100 for the full control effect; some results filed as inactive show a strong effect at the top dose
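qHTS, 1536-well. Cells seeded, compounds added by pin tool, 24 h 37C. Nano-Glo reagent 1 (lysis/FLuc), 10 min RT, read; Stop&Glo, 10 min RT, read NLuc.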
Numbers without * were called inactive; u = inconclusive; x = not tested or not shown; & = joins results of further samples; [ ] = dose if it differs, or a comment. Potency is the fitted concentration of half-maximal effect.

Compound | HTT promoter inh | PMP22 txn prim
COc1ccc(-n2ncc(C(=O)NCCCN3CCCCC3)c2C2CCN(C(=O)OC(C)(C)C)CC2)cc1 | -8.2% | u
Nc1ncnc2c1ncn2[C@@H]1O[C@H](COP(=O)(O)O)[C@@H](O)[C@H]1O | 17.0% | x
COc1ccc(NC(=O)C2CCN(C(=O)N3CCOc4ccccc43)CC2)cc1 | -12.8% | 1.5%
Cc1ccc(-n2nc(CO)c(C(=O)NCc3ccccn3)n2)cc1C | 2.4% | 0.2%
O=C(NCc1ccc(Cl)cc1)c1ccc2c(c1)NC(=O)C(CS(=O)(=O)Cc1ccc(F)cc1Cl)N2 (stereo unspecified) | u | -3.4%
CCOC(=O)c1ccccc1NC(=O)N1CCc2c(sc(C)c2CC)C1c1ccccc1 (stereo unspecified) | -24.3% | u
CC(CSC(=O)c1ccccc1)C(=O)N1C[C@@H](Sc2ccccc2)C[C@H]1C(=O)O (stereo partly specified) | 1.3%[25.2 µM] | x
COC(=O)c1ccc(CSc2nc3c([nH]c4ccccc43)c(=O)n2-c2ccc(F)cc2)o1 | u | -28.0%
CCc1ccccc1NC(=O)c1nnn(Cc2ccc(Cl)cc2)c1N | u | u
COc1ccccc1CNC(=O)c1ccc2c(c1)N(Cc1c(F)cccc1Cl)C(=O)CS2 | u | u
CCCOc1ccc(C(=O)N(Cc2cccs2)C2CCS(=O)(=O)C2)cc1 (stereo unspecified) | -25.6% | -29.7%
COc1ccc(N(C(=O)c2ccccc2C)S(=O)(=O)c2ccc3c(c2)n(C)c(=O)n3C)cc1 | 2.5% | -5.5%
O=C(c1ccccc1)N1CCN(CCc2ccccn2)CC1 | -20.5%[11.5 µM] | 19.5%
CCC1(C)CC(=O)c2c(ccc3oc(C(=O)Nc4ccc(C(C)=O)cc4)c(C)c23)O1 (stereo unspecified) | -18.4% | -13.0%
CC1CCN(C(=O)CSc2nnc(-c3ccccc3)o2)CC1 | 23.9% | u
O=C(O)Cn1c(C(=O)Nc2nc(-c3ccccc3Cl)cs2)cc2ccccc21 | 4.7% | x
CN1CCN(C(CNC(=O)c2c(F)cccc2F)c2ccc3c(c2)OCO3)CC1 (stereo unspecified) | -3.2% | u
CCCc1nn2c(=O)cc(COC(=O)c3cccc(NC(=O)COc4ccc(F)cc4)c3)nc2s1 | 1.8% | u
COc1cccc(CC(=O)Nc2c(C(=O)N3CCN(c4ccccc4F)CC3)oc3ccccc23)c1 | u | -18.1%
COc1ccc(NC(=O)C(NS(=O)(=O)c2ccc3c(c2)CCCC(=O)N3)C(C)C)c(OC)c1 (stereo unspecified) | -22.0% | 12.2%
Cc1ccc2oc(-c3cc(NC(=O)c4ccco4)ccc3Cl)nc2c1 | -4.7% | -10.7%
CCc1ccc(NCc2cc3ccc(OC)cc3n(CC(=O)Nc3c(C)cc(C)cc3C)c2=O)cc1 | -4.6% | u
CCOC(=O)c1c(SCC(=O)Nc2nc3ccc(C)cc3s2)nc(=O)[nH]c1C | -2.1% | u
COCCCNC(=O)c1ccc(Cn2c(=O)c3ccccc3n(Cc3ccccc3C)c2=O)cc1 | u | u
Cc1ccc(-n2nc(C)c3nc(CCC(=O)Nc4cccc(C)c4C)c(=O)n(C)c32)cc1 | -13.4% | 3.4%

A portion from the list above:
Compound | HTT promoter inh | PMP22 txn prim
COCCCNC(=O)c1ccc(Cn2c(=O)c3ccccc3n(Cc3ccccc3C)c2=O)cc1 | u | u
Cc1ccc(-n2nc(C)c3nc(CCC(=O)Nc4cccc(C)c4C)c(=O)n(C)c32)cc1 | -13.4% | 3.4%

Following part:
Compound | HTT promoter inh | PMP22 txn prim
COc1cc(C2Nc3ccccc3-c3cc(C)nn32)ccc1O (stereo unspecified) | -12.1% | -7.3%
CC1(C)N=C(SCc2ccc(Cl)cc2)c2ccccc2N1 | 3.1% | -26.1%
CCNC(=O)c1c(NC(=O)c2nc(S(=O)(=O)CC)ncc2Cl)sc2c1CCCC2 | 3.1% | 4.47µM*
Cc1c(-c2ccc(Cl)cc2)c(=O)oc2c(CN3CCCC3)c(O)ccc12 | -0.2% | -88.1%
CCN1CCc2nc3sc(C(=O)c4ccccc4)c(N)c3cc2C1 | -12.4% | -74.5%
CN(C)c1ccc(C(=O)Nc2sc(Nc3ccccc3)nc2C(N)=O)cc1 | u | -16.9%
Cc1ccc(-c2cc(-c3ccccc3)c(C#N)c(SCC(O)CS(=O)(=O)Cc3ccccc3)n2)cc1 (stereo unspecified) | u | 2.0%
CCN1C(=O)c2ccccc2Sc2ccc(NC(=O)c3ccc(Cl)cc3)cc21 | -15.2%[11.5 µM] | -1.2%
Cc1ccc(NC(=O)Cc2ccc(NC(=O)N3CCCCc4ccccc43)cc2)cc1 | -28.6% | u
Clc1ccc(CSc2nc3ncccc3[nH]2)cc1 | 59.2%[activator] | u
Cc1ccc(CNC(=O)CNS(=O)(=O)c2cccs2)cc1 | 0.3% | -28.0%
COc1ccc(NC(=O)NCc2c(-n3cccc3)sc3c2CCCC3)c(OC)c1 | -9.8% | -27.8%
Cn1c(=O)nc2n(-c3ccc(Cl)c(Cl)c3)c3cc(Cl)ccc3cc-2c1=O | -4.3% | -3.0%
CN1CCCC(n2nc(Cc3ccc(Cl)cc3)c3ccccc3c2=O)CC1 (stereo unspecified) | 163.4%&3.9%[activator] | x
COc1ccc2c(c1)c1c(c(=O)n(-c3ccccc3C)c(=O)n1Cc1ccccc1C)n2C | 0.4% | u
Cc1ccccc1CC1C(=O)Nc2ccc(Br)cc21 (stereo unspecified) | u | -56.2%
O=S(=O)(NCC(c1ccco1)N1CCOCC1)c1cc(F)ccc1F (stereo unspecified) | -2.5% | -2.7%
CCOc1ccc(N2C(=O)CS(=O)(=O)C23C(=O)N(Cc2cccc(Cl)c2)c2ccccc23)cc1 (stereo unspecified) | u | -24.6%
Cc1coc2c(C)c3oc(=O)c(CC(=O)NCc4ccccc4)c(C)c3cc12 | -11.2% | -25.5%
Cc1ccc(C)c(NC(=O)CN2C(=O)CSc3nc(C)cc(C)c32)c1 | -8.5% | 0.2%
O=C(Nc1c(C(=O)N2CCC(N3CCCCC3)CC2)oc2ccccc12)c1c(F)cccc1F | -9.1% | -2.3%
Cc1cc(-c2ccc(C)c(S(=O)(=O)NCC3CCN(Cc4ccc(F)cc4)CC3)c2)on1 | -26.0% | u
COc1ccc(OC)c(NCc2cccn2-c2nnc(N3CCC(C)CC3)s2)c1 | -17.5% | u
CC1CCC(NC(=O)c2ccc(CS(=O)(=O)c3cccc(C(F)(F)F)c3)o2)CC1 (stereo unspecified) | -25.7% | -24.3%
COC(=O)c1ccc(Oc2nc3c(c(=O)n(C)c(=O)n3C)n2C(C)C)cc1 | -8.9% | 11.3%
CCCNC(=O)C1CCN(Cc2cc3ccccc3n2Cc2ccccc2)CC1 | -30.4% | u
COc1ccccc1Cc1nc2ccccc2nc1SCC(=O)Nc1ccccc1C(F)(F)F | -7.2% | u
Nc1c(C(=O)NCc2ccccc2)nnn1Cc1cccc(Br)c1 | u | 3.03µM*
CCOc1ccc(-n2c(=O)c3c(C)c(C)sc3n(CC(=O)Nc3ccc(CC)cc3)c2=O)cc1 | -16.1% | u
Cc1cccc(C(=O)Nc2cccc(OCc3cc(=O)n4c(C)csc4n3)c2)c1 | 12.9% | -50.1%
CC(=O)c1ccc(N2CCN(C(=O)Nc3ccc(C)cc3)CC2)cc1 | u | 6.6%
COc1cccc(-c2nc(SCC(=O)Nc3ccc4c(c3)OCCO4)c(-c3ccccc3)[nH]2)c1 | u | u
COc1ccccc1OCCCCn1c(C2CC(=O)N(c3ccccc3Cl)C2)nc2ccccc21 (stereo unspecified) | -18.0% | -13.0%
COC(=O)c1sc2cccc(F)c2c1S(=O)(=O)Nc1cc(OC)cc(OC)c1 | -21.1% | -22.0%
Cc1cccc(C(=O)Nc2ccc(S(=O)(=O)N(Cc3ccccc3)c3ccccc3)cc2)c1 | u | u
Cc1ccc(-c2nc3sccn3c2Nc2ccc(C)c(C)c2)cc1 | 0.0% | 12.6%
CC(=O)N1c2ccccc2CC1C(=O)N1CCN(c2cccc(C)c2C)CC1 (stereo unspecified) | -21.2% | -29.8%
COCCNC(=O)CN1C(=O)c2cccnc2Sc2ccccc21 | -12.6% | -2.8%
COc1cccc(C(=O)NCCc2csc3nc(-c4ccccc4F)nn23)c1OC | -5.8% | -5.5%
COc1ccc(C2c3c(oc4ccc(Cl)cc4c3=O)C(=O)N2CCCN(C)C)cc1OC (stereo unspecified) | 10.9% | 20.7%
COc1cccc(CNC(=O)c2ccc3nc(-c4ccc(F)cc4)c(-c4ccc(F)cc4)nc3c2)c1 | u | 0.0%
CCOc1cc(-c2nc(-c3ccc(-c4ccc(C)cc4)nc3OC)no2)cc(OCC)c1OCC | -12.3% | -14.6%
Cc1c(N(C)CS(=O)(=O)O)c(=O)n(-c2ccccc2)n1C | 7.2% | x
Cc1ccc(S(=O)(=O)CC(=O)Nc2nc3c(C)cccc3s2)cc1 | -18.3% | -14.2%
COc1ccc(-n2nc(-c3ccc(C)cc3)c3cnc4cc(F)c(F)cc4c32)cc1 | -13.8% | -8.5%
CCN(CC)c1nn2c(=O)c(C(=O)NCCc3ccccc3C)cnc2s1 | -17.1% | u
COc1ccc(NC(=O)c2cc3c(=O)n(Cc4cccnc4)ccc3nc2C)cc1Cl | 4.9% | -29.4%
Cc1ccccc1Cn1c(C)c(CNCCCc2ccccc2)c(C(=O)O)c1C | -20.7% | -5.3%
O=C(Cn1ncc2c3ccccc3n(Cc3ccccc3F)c2c1=O)N1CCCCC1 | 12.3% | 4.7%
COc1ccc(-c2cc(C(F)(F)F)nc(SCCC(=O)Nc3cc(C)ccc3O)n2)cc1 | u | u

Looked up above:
`COc1ccccc1OCCCCn1c(C2CC(=O)N(c3ccccc3Cl)C2)nc2ccccc21` (stereo unspecified) | PMP22 txn prim: -13.0%
`Cc1c(N(C)CS(=O)(=O)O)c(=O)n(-c2ccccc2)n1C` | HTT promoter inh: 7.2%

Part of the list above in order of molar mass, lowest first:
Compound | HTT promoter inh | PMP22 txn prim
Cc1ccc(S(=O)(=O)CC(=O)Nc2nc3c(C)cccc3s2)cc1 | -18.3% | -14.2%
COc1ccc(-n2nc(-c3ccc(C)cc3)c3cnc4cc(F)c(F)cc4c32)cc1 | -13.8% | -8.5%
CCOc1cc(-c2nc(-c3ccc(-c4ccc(C)cc4)nc3OC)no2)cc(OCC)c1OCC | -12.3% | -14.6%

The list goes on.
Compound | HTT promoter inh | PMP22 txn prim
COc1cc(C(=O)Nc2cc(C)ccc2OCc2cc(=O)n3c(C)csc3n2)cc(OC)c1OC | 4.7% | -3.0%
CCOC(=O)c1c(-c2ccc(Br)cc2)csc1NC(=O)c1ccc(C(C)(C)C)cc1 | -11.1% | 0.3%
Cc1ccccc1CNC(=O)c1cnc2sc(N3CCOCC3)nn2c1=O | 2.9% | u
COc1ccc(NC(=O)CCN2CCN(CCO)CC2)c(OC)c1 | -7.7% | -3.3%
Fc1ccccc1Cn1c(-c2ccccc2)nc2ccccc21 | -21.6% | -20.2%
Cc1cnc(=O)[nH]c1SCC(=O)Nc1nc2ccccc2s1 | 27.6% | -0.6%
Cn1c(=O)oc2cc(S(=O)(=O)N3CCC(C(=O)N4CCN(c5ccccc5F)CC4)CC3)ccc21 | -17.6% | u
O=C(CSc1nc2ccccc2nc1Cc1ccccc1)N1CCc2ccccc21 | 0.5% | -5.4%
Cc1ccc(NC(=O)CCc2nc3cccnc3n2-c2ccccc2)cc1 | -31.4% | 23.7%
Cn1cc(S(=O)(=O)N2CCCC2)cc1C(=O)Nc1ccc(F)cc1F | -9.7% | -2.8%
Cc1ccc(N(CC(C)C)S(=O)(=O)c2nnc(NC(=O)c3ccco3)s2)cc1 | u | -16.8%
CN(C/C=C/C#CC(C)(C)C)Cc1cccc2ccccc12 | 2.8% | x
CCOc1ccc(-c2cn3c(n2)sc2cc(C(=O)NCCCN4CCCCCC4)ccc23)cc1 | -3.6% | u
O=C(Cn1ccc2cc(S(=O)(=O)N3CCCCC3)ccc21)NCCc1ccc(Cl)cc1 | u | u
Cc1ccc2c(=O)c(C(=O)c3ccc(F)cc3)cn(CC(=O)NCc3ccccc3Cl)c2n1 | 1.1% | -23.6%
Cc1cccc(-n2c3nc(=O)n(C)c(=O)c-3cc3c(C)nn(-c4ccccc4)c32)c1C | -6.7% | 11.4%
COc1ccc(C)cc1Nc1nc2c(S(=O)(=O)c3cc(C)ccc3C)nnn2c2ccsc12 | 1.6% | -11.7%
COc1ccc(OC)c(NC(=O)CSC2=Nc3ccccc3C3=NC(CC(=O)NCCc4ccccc4)C(=O)N23)c1 (stereo unspecified) | 0.0% | u
COc1c(Cl)cc(C(=O)N(Cc2ccc(C)o2)C2CCS(=O)(=O)C2)cc1Cl (stereo unspecified) | -29.8% | -27.7%
CCOc1ccc(-c2cc(C(=O)NCc3ccc(OCC)c(OC)c3)[nH]n2)cc1 | -11.5% | 7.8%
CCCNC(=O)C(CC)n1nc(CC)n2c(cc3oc(C)cc32)c1=O (stereo unspecified) | u | u
CC(CCc1ccccc1)NC(=O)Cn1ncc2c3ccccc3n(Cc3ccccc3)c2c1=O (stereo unspecified) | 3.4% | 1.4%
CCc1nc(Oc2cccc(F)c2)c2oc3ccccc3c2n1 | -4.5% | 4.9%
